# Screening data from PubChem BioAssay.
# ClpP mod: qHTS Assay for Activators of ClpP. purified B. subtilis ClpP, FRET peptide cleavage, 20 min. 340,000 compounds, 1.9% hits. AID 651965, 2013. ATP-dependent Clp protease proteolytic subunit (Bacillus subtilis (strain 168)), P80244. Potency, µM (top dose mostly 57.5 µM), for inactives: top-dose activity change, negative = active; active = well fitted falling curve with a large enough effect; inconclusive = small, poorly fitted or top-dose-only effect; inactive = no such curve, though single readings can be large or run the other way; further: potency means the concentration at half of the fitted maximal effect; the source files actives as falling curves though it sought activators and does not explain the sign; nearly all actives have a fitted effect of over 65% in size; many hits overshoot -100%
# Target sequence (P80244 whole entry, looked up): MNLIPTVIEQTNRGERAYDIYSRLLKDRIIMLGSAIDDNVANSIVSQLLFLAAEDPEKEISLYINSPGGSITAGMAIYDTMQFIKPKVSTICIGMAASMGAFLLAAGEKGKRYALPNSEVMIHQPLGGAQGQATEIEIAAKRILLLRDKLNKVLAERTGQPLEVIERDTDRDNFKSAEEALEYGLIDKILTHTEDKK
#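 ClpP 10 microg/mL final, pH 8 Tris/KCl buffer with BSA, glycerol, Tween-20; compound pinned in; FRET-FV substrate; RT 20 min; Ex320/Em430; ΔFRET vs ADEP 5.8 microM, DMSO, no enzyme.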
# gsp agonist: activates gsp, the McCune-Albright syndrome mutation | gsp mutant cells, cAMP HTRF, 30 min; control for the full effect not named in the record | Potency, µM (top dose mostly 76.9 µM), without a hit: at the highest dose activation (cAMP increase), usual class: activators | 340,000 compounds, 0.13% hits | AID 624287; active = well fitted activation curve with a large enough effect; inconclusive = small, poorly fitted or top-dose-only effect, or another doubt; inactive = no such curve, though single readings can be large or run the other way; cell line not stated here;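 further: phosphodiesterase inhibitor Ro 20-1724 added with compounds to block cAMP breakdown; potency means the concentration at half of the fitted maximal effect; nearly all actives have a fitted effect of over 60% in size; about a fifth of the inactives were tested at one dose only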
#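 Cells in DMEM/10% FBS with G418 were pretreated with compounds in DMSO plus […] (300 uM stock) for 30 min at 37C. cAMP was measured by HTRF (cAMP-d2 plus anti-cAMP antibody-K) after 30 min at room temperature.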
# Menin-MLL FL inh: displaces fluorescein MLL peptide from human menin | FP activity change, % at 61.4 µM | Fluorescence polarization, fluorescein-MLL peptide displacement from menin | 290,000 tested, under 10 active; inconclusive = falling polarisation curve, or a change in total fluorescence; inactive = total fluorescence flat and polarisation flat or rising; no compound was filed as active; the % refers to the polarisation; negative = inhibition;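 further: % of control where 0% means no effect; inhibitors lower the polarisation; unlabelled MLL peptide was the positive control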
# gsp antagonist: antagonizes gsp, the McCune-Albright syndrome mutation; gsp-mutant cells, cAMP HTRF, 30 min; control for the full effect not named in the record; Potency, µM (highest dose often 76.9 µM), without a hit: top-dose activity change, negative = inhibition, hits mostly inhibitors; 340,000 compounds, 0.4% hits; AID 624288; active = falling curve of any shape with a large fitted effect; inconclusive = falling curve, mostly with a smaller effect; inactive = flat or rising curve; cell line not stated here;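 further: intracellular cAMP measured with PDE inhibitor Ro 20-1724 present during compound exposure; potency means the concentration at half of the fitted maximal effect; on the % scale 0 is the no-effect control and ±100 the full control effect; nearly all actives have a fitted effect of over 65% in size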
#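 HTRF cAMP measurement after 30 min RT detection following 30 min, 37C compound treatment alongside […] (added as 300 uM solution) in G418-selected cells seeded at 2000/well and grown 16–24 h.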
# CtBP-E1A blk: CtBP/E1A binding inhibition; AlphaScreen GST-E1A/His-CtBP binding, 1536-well; stronger effect = lower value; control for the full effect not named in the record; activity change, % (concentration not given with the values); 340,000 compounds, 0.49% hits; in the data active means activity change below about -65%; inconclusive means about -30% to -65%; inactive means above about -30%; further: on the % scale 0 is the no-effect control and ±100 the full control effect
#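 In 5 uL wells, 23 nL compound meets equimolar GST-E1A and His-CtBP (5X stock 125 nM each) for 2 h, 37 °C. Beads (5X, 50 ug/mL) then 1 h, 37 °C, dark.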
# TRPV1 potentiator: enhances activation of the human vanilloid receptor TRPV1. 320,000 compounds, 0.02% hits. potentiation, % at 8.33 µM. TRPV1-expressing cells, Fluo-8 calcium influx, capsaicin EC20 potentiation; host cell line not named in the record; control for the full effect not named in the record. AID 540277. Q8NER1; active means potentiation above 80%; inconclusive means 30% to 80%; inactive means below 30%; further: 0% is about no effect
# Target sequence (Q8NER1 whole entry, looked up): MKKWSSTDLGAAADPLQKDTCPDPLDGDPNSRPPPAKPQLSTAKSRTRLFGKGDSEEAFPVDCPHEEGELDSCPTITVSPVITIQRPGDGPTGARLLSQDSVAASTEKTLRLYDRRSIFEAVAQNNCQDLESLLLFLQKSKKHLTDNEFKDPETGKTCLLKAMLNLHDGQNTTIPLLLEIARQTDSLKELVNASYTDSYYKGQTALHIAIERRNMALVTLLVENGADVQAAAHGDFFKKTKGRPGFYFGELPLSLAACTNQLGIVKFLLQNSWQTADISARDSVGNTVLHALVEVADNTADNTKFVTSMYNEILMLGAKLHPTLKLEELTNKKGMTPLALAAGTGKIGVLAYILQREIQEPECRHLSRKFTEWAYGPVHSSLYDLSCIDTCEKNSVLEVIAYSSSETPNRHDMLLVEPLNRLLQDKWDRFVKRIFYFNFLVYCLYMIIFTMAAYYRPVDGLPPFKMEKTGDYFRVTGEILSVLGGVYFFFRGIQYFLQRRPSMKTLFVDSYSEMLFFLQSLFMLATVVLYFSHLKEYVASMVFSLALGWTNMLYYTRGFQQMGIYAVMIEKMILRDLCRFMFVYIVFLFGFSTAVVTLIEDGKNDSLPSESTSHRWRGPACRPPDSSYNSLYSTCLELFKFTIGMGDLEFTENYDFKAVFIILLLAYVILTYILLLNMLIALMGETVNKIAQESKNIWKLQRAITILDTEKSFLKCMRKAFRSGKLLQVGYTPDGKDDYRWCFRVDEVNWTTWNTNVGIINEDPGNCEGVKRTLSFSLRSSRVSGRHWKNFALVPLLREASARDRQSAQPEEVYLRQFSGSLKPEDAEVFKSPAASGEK
#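 Cells expressing TRPV1 were dye-loaded with Fluo-8 and read kinetically: 10 s baseline, 3 min after compound (agonist portion), then 2 min after EC20 capsaicin (allosteric enhancer portion). Calcium-bound dye fluorescence at 480/520 nm.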
# Sfp inh: inhibitors of Bacillus subtilis Sfp phosphopantetheinyl transferase; Q9F4F7; Biochemical Sfp PPTase activity, qHTS; Potency, µM, for inactives: max response, negative = inhibition, most hits filed as inhibitors; 310,000 compounds, 3.5% hits; active means well fitted inhibition curve with a large enough effect; inconclusive means small, poorly fitted or top-dose-only effect, or another doubt; inactive means no such curve, though single readings can be large or run the other way;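 further: the enzyme is Sfp with the accession as filed and its product quenches rhodamine fluorescence; potency means the concentration at half of the fitted maximal effect; 0% = enzyme reaction without inhibitor and -100% = no enzyme wells; top concentration of the series not given in the record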
#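 With Hepes-Na pH 7.6 buffer containing 10 mM MgCl2, Sfp (15 nM) modified BHQ-2-YbbR (12.5 uM) using rhodamine-CoA (5 uM). Two reads 30 minutes apart at 525/598 nm yielded each well's rate.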
# Numbers without * were called inactive; ? = inconclusive; . = no result given; & = joins results of further samples; [ ] = remark or other dose. This is a random part of the collection; any-hit rate near 5.3%.
SMILES,ClpP mod,gsp agonist,Menin-MLL FL inh,gsp antagonist,CtBP-E1A blk,TRPV1 potentiator,Sfp inh
CC(=O)Nc1ccc(NC(=O)CSc2nc3nc(C)cc(C)c3c(=O)[nH]2)cc1,-5.6%,14.3%,.,3.0%,-7.1,-9.5,4.6%
CCN(CC)CCSc1nnc(Nc2ccccc2)n1-c1ccccc1,.,-16.2%[15.4 µM],-0.7,-11.2%,-1.0,-8.6,-14.1%
O=C(O)CCOc1ccc2c(c1)OCCO2,0.9%,16.5%,2.8,9.6%,3.9,5.7,8.9%
O=C(Nc1ncccn1)c1ccc(C(F)(F)F)cc1,?,-16.9%,0.4,7.6%,0.2,-4.5,-2.5%
Cc1cc(-c2ccccc2)nc2cc(C(=O)NCc3ccco3)nn12,-24.1%,?,-0.4,-15.4%,-13.0,15.4,?
COCCN(C(=S)Nc1ccccc1OC)C1CCN(C(C)=O)CC1,-1.4%,-14.6%,8.0,6.8%,4.8,-10.4,-6.4%
COc1ccc(C2NC(c3ccc(OC)cc3OC)C(C)C(=O)C2C)c(OC)c1 (stereo not given),1.3%,-11.9%,-1.3,8.2%,.,2.7,-24.9%
O=C(CSc1nnc(-c2cccnc2)o1)c1cc2ccccc2oc1=O,-14.6%,5.0%,?,-25.2%,-2.1,.,?
O=C(CC1C(=O)NCCN1C(=O)Nc1ccccc1)Nc1ccc2c(c1)OCCO2 (stereo not given),-4.5%,-4.5%,1.9,4.1%,1.1,3.7,15.2%
COc1ccc2nc(SCC(=O)NC(C)c3ccccc3)[nH]c2c1 (stereo not given),0.0%,-3.0%,.,2.0%,.,-6.0,.
CCOC(=O)Cc1csc(NC(=O)CSc2nc3sc(C(=O)O)c(C)c3c(=O)[nH]2)n1,-26.8%,9.3%,0.3,6.9%,-4.6,-0.1,25.8%
Cc1ccc(S(=O)(=O)N2CCCC(C(=O)N3CCN(c4ccccc4)CC3)C2)cc1 (stereo not given),1.4%,-13.8%,2.0,-24.0%,4.6,-4.2,7.1%
O=C(O)CCSc1nc(C(F)(F)F)cc(=O)n1-c1ccccc1,0.1%,-4.9%,2.3,-3.1%,0.8,3.5,20.7%
CCCCOC(=O)C1C2CCC(O2)C1C(=O)OCC (stereo not given),2.0%,-22.1%,.,13.7%,0.2,.,.
Cc1ccc(S(=O)(=O)Nc2nc3ccccc3s2)cc1[N+](=O)[O-],-7.7%,19.5%[15.4 µM],0.3,-3.7%,-17.0,15.4,21.4%
CC(C)Sc1nc2ccsc2c(=O)[nH]1,.,2.9%[15.4 µM],-8.8,5.1%,.,2.4,8.2%
Cn1c(Sc2nc3ccccc3n2C)nc2ccccc21,-0.8%,-50.4%[inhibitor],2.2,17.5%,7.4,.,20.2%
O=C(Nc1ccccc1F)C1C2C=CC3(O2)C1C(=O)N(c1cccnc1)C3C(=O)NC1CCCCC1 (stereo not given),0.6%,-5.7%,3.5,7.3%,-0.9,-9.1,3.0%
CCSc1ccccc1C(=O)N1CCC2(CC1)CC(=O)c1ccccc1O2,?,-9.9%,.,-19.6%,0.0,2.0,.
Cc1ccc(/C=N/Nc2nncn2N)cc1,.,1.7%[15.4 µM],-8.6,-2.8%,-28.2,5.8,39.8µM*
COc1ccc(NC(=O)CSc2nc(-c3ccc(C)cc3)cc(C(F)(F)F)c2C#N)cc1,22.9%,-14.1%,9.1,8.8%,6.3,-6.6,12.9%
COc1cc(NC(=O)C2CCCN(S(=O)(=O)c3cnc[nH]3)C2)cc(OC)c1 (stereo not given),1.3%,31.0%,3.7,-0.4%,-1.0,6.1,4.2%
Cc1ccc(S(=O)(=O)c2cc3ccccc3oc2=O)cc1,.,1.9%[15.4 µM],0.3,5.3%,9.2,-15.2,1.3%
COc1ccc(/C=N/Nc2ccccn2)cc1O,.,-14.5%[15.4 µM],0.0,-20.9%,-8.5,-12.6,50.1µM*
O=C(O)C1CCCCC1C(=O)Nc1ccc2c(c1)CCC2 (stereo not given),-6.6%,-5.8%,0.8,6.1%[15.4 µM],8.0,-2.9,12.1%
# (continued)
SMILES,ClpP mod,gsp agonist,Menin-MLL FL inh,gsp antagonist,CtBP-E1A blk,TRPV1 potentiator,Sfp inh
CCc1ccc(NC(=O)CC2C(=O)NCCN2C(=O)c2ccccc2OC)cc1 (stereo not given),0.6%&-3.3%,?,2.1,15.9%,12.6,16.5,11.9%
CCCCCCCCCCCCCCCC[N+](C)(C)CCN(Cc1ccc(OC)cc1)c1ncccn1,-8.7%,.,1.7[24.8 µM],6.9%,-10.0,-4.0,14.1µM*
CCOC(=O)COn1c(=O)c(-c2ccc(Cl)cc2)[n+]([O-])c2ccccc21,-5.8%,21.9%,-2.7,11.5%,-1.8,-3.9,15.7%
COc1ccc(C(=O)/C=C/c2ccc(OC)cc2OC)c(O)c1,-4.9%,.,-0.8,-19.4%,-22.8,-10.2,?
CC(=O)Nc1ccc(C(=O)NNC(=O)C2C3CCCCC32)cc1 (stereo not given),-0.6%,32.2%,.,3.6%,0.0,-7.1,0.9%
COc1ccc(N2CCN(C(=O)C(=O)c3c(C)[nH]c4ccccc34)CC2)cc1,-1.1%,-28.7%,.,-7.4%,.,11.2,20.0%
Cc1cc(NC(=O)CCN2C(=O)/C(=C/c3ccccc3Cl)SC2=S)no1,-1.7%,22.4%,3.4,-11.0%,-1.4,1.1,-23.8%
Cc1ccc(N=CNc2ccc(C)cc2C)c(C)c1,.,-8.6%[15.4 µM],2.4,15.4%,5.0,-8.7,8.1%
O=C(Nc1nc2ccccc2s1)c1ccccc1,-4.0%,-38.1%[inhibitor],-2.6,-10.5%,.,-9.8,-1.6%
CCOc1ccccc1NC(=O)N1CCN(S(C)(=O)=O)CC1,.,-1.2%[15.4 µM],-0.8,7.9%,3.7,-5.4,9.3%
COc1ccccc1NS(=O)(=O)c1ccc(C)c(C(=O)NCC2CCCO2)c1 (stereo not given),1.0%,-16.5%,-0.8,12.1%,-1.4,27.5,0.9%
CC1CC(C)CN(C(=O)COC(=O)COc2ccccc2C#N)C1 (stereo not given),-0.8%,-13.5%,.,6.6%,5.8,1.9,.
O=C(O)c1ccc(C2NCC(c3ccccc3Cl)c3c2[nH]c2ccccc32)cc1 (stereo not given),-0.9%,13.4%[15.4 µM],-8.0,-41.2%,-1.8,28.8,-11.3%
C=CCN1C(=O)C(O)(CC(=O)c2ccc(N)cc2)c2ccccc21 (stereo not given),-6.2%,?,2.9,11.0%,-0.1,.,-9.0%
O=C(C[n+]1ccccc1)N/N=C/c1ccc(Cl)c(Cl)c1,-2.9%,-10.4%[15.4 µM],1.9,8.5%,-16.5,1.9,1.0%
CC(=O)N1CCC(N(CCN2CCOCC2)C(=O)Nc2ccc(Cl)c(Cl)c2)CC1,-0.7%,-16.6%,.,-2.9%,0.3,.,.
CC(C)CC1C(C#N)=C(N)OC2=C1C(=O)CC(c1ccccc1)C2 (stereo not given),1.4%,-13.2%,14.5,-15.1%,0.0,7.6,10.7%
CCN(C(=O)COC(=O)CSc1ccc(C)c(C)c1)C1CCS(=O)(=O)C1 (stereo not given),1.4%,-22.7%,.,3.0%,10.0,8.3,13.5%
CCN(CC(=O)Nc1sc2c(c1C#N)CCCC2)CC(=O)NC1CCS(=O)(=O)C1 (stereo not given),.,-5.3%[15.4 µM],-0.9,-10.9%,6.5,-1.8,23.1%
O=C(/C=C\c1ccco1)Nc1nc(-c2ccccc2)cs1,-4.0%,4.7%,13.7,4.6%,-13.8,1.8,?
O=C1c2cccc3c(Nc4ccccc4Cl)c([N+](=O)[O-])cc(c23)C(=O)N1CCO,0.4%,-58.3%[inhibitor],-0.9,-3.4%,-25.7,?,-26.2%
Cc1ccc(C(=O)NNC(=O)c2csc(N3CCOCC3)n2)s1,-1.2%,-24.4%,.,8.7%,13.5,-7.1,.
Cc1cc(C)c(NS(=O)(=O)c2ccc3c(c2)NC(=O)CC(=O)N3)c(C)c1,-1.0%,?,2.7,5.8%,12.7,0.7,-20.7%
O=C(Cc1cccc2ccccc12)NNC(=O)c1cccs1,-2.6%,0.0%,-1.2,15.1%,-0.6,1.9,9.6%
COc1cc2c(-c3ccc4cc[nH]c4c3)c(-c3ccc(C#N)cc3)oc(=O)c2cc1OC,4.1%,?,.,-7.4%,8.9,18.5,.
# (further entries)
SMILES,ClpP mod,gsp agonist,Menin-MLL FL inh,gsp antagonist,CtBP-E1A blk,TRPV1 potentiator,Sfp inh
O=[N+]([O-])/C=C1/CCCCCN1,.,16.5%[15.4 µM],-1.7,-10.3%,0.0,1.4,5.9%
COC(=O)/C=C(\C)N=Nc1c(O)[nH]c2ccccc12,.,4.6%[15.4 µM],?,-4.9%,-26.9,-9.8,6.7%
COc1ccc(CNC(=O)CN(C(=O)c2snc(C(N)=O)c2N)c2ccccc2F)cc1,.,11.3%,-4.7,-16.2%,-1.2,-4.2,11.0%
COC(=O)c1ccc(NC(=O)c2ccc(N(C)S(C)(=O)=O)cc2)cc1,-0.3%,-0.8%,0.7,0.0%,6.6,-30.7,9.3%
CC(=O)N1CCOc2ccc(S(=O)(=O)Nc3cccc(C)n3)cc21,-6.0%,-2.6%,-0.2,4.6%,5.8,10.2,7.9%
COP(=O)(OC)C(=NNS(=O)(=O)c1ccc(C)cc1)c1ccccc1,-2.9%,24.4%,.,.,-9.3,.,.
Cc1ccc(/C=N/c2sc3c(c2C#N)CCCCC3)o1,0.8%,-7.9%,4.3,6.5%,-11.7,-1.3,50.1µM*
CCOc1ccc(-c2nnc(-c3ccco3)o2)cc1,8.91µM*,10.6%,1.0,-2.4%,6.2,-18.4,5.9%
CCN(CC)CCN1C(=O)C2C3c4ccccc4C(c4ccccc43)C2C1=O (stereo not given),-1.6%,1.5%,9.1,4.9%,-10.4,-13.5,9.9%

# One compound at a time, as listed above. Screens in order: ClpP mod	gsp agonist	Menin-MLL FL inh	gsp antagonist	CtBP-E1A blk	TRPV1 potentiator	Sfp inh
# CC(C)Sc1nc2ccsc2c(=O)[nH]1 is listed with .	2.9%[15.4 µM]	-8.8	5.1%	.	2.4	8.2%
# O=C(O)CCSc1nc(C(F)(F)F)cc(=O)n1-c1ccccc1 is listed with 0.1%	-4.9%	2.3	-3.1%	0.8	3.5	20.7%
